# Source: PubChem BioAssay (several laboratories)
# ALR H2O2 inh: inhibitors of human sulfhydryl oxidase ALR | purified ALR, DTT oxidation, H2O2 HRP-luminol luminescence | inhibition, % (test concentration not listed) | hit rate 3.8% among 290,000 | AID 485317;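 active = mean and each replicate at 75% or more; inconclusive = only one of the two met; inactive = neither met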;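 note: stock transfer was 7.5 nL into about 7.5 µL; 0% = neutral wells and 100% = wells with inactivated enzyme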
# Target sequence (P55789 whole entry, looked up): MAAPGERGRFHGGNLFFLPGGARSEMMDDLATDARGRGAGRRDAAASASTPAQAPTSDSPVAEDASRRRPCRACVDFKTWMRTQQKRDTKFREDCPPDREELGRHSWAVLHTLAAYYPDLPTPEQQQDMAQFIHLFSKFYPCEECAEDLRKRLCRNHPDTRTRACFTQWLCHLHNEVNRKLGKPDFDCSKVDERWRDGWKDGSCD
# LANA-H2B inh: blocks KSHV LANA binding to histone H2A/H2B | Q9QR71 | cell-free LANA-H2A/H2B peptide, fluorescence polarization | inhibition, % (concentration not given with the values) | hit rate 0.6% among 320,000 | AID 2629; in the data active = inhibition mostly above about 10%, no sharp cut-off; inactive = mostly below about 6.7%;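 note: stock transfer was 7.5 nL into about 10 µL; 0% = median of vehicle wells and 100% = median of positive control wells; one replicate is shown; the record names a cut of 25% in any replicate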
# Beta2AR agonist: agonists of human beta-2 adrenergic receptor inducing internalization; AID 504454; hit rate 0.43% among 340,000; P07550; response, % (concentration not given with the values); Am2.2-beta2AR cells, FAP receptor internalization, flow cytometry; reference of the scale not given here;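 active = response above a set limit, near 3 SD of response in nonfluorescent compounds, cut at about 42% in these data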;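 note: stock transfer was 100 nL into about 11 µL; a reference agonist was the positive control; negative values mostly stem from fluorescent compounds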
# Target sequence (P07550 whole entry, looked up): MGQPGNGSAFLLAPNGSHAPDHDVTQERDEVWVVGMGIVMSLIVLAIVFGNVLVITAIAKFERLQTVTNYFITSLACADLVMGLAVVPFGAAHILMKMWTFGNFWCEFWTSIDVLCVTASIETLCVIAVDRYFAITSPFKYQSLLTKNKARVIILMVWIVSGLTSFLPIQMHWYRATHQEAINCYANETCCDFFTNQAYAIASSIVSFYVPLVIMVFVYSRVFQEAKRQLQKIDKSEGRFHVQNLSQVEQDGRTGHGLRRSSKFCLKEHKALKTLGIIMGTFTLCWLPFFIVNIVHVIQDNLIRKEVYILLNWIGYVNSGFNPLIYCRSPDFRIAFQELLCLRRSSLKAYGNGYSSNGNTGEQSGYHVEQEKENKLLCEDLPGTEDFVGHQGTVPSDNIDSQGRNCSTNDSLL
# T cruzi repl: T. cruzi replication inhibition. T. cruzi beta-gal in NIH3T3, luminescence, 90 h. inhibition, % (test concentration not listed). hit rate 1.4% among 300,000. AID 1885;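 active = mean inhibition across valid replicates above about 55%, limit read from the data; inconclusive = mean below that limit but half or more replicates reach it; inactive = mean below it, under half of replicates reach it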;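 note: signal also drops with host cell toxicity which is not excluded here; 0% = plate median of DMSO wells and 100% = zero luminescence signal; higher percent means less beta-gal luminescence so fewer parasites; stock transfer was 50 nL into about 50 µL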
# Ecoli rRNA inh: inhibits bacterial ribosomal RNA function over humanized ribosomes; E. coli WT GFP vs humanized-ribosome RFP mutants, fluorescence, 24 h; stronger effect = lower value; DMSO median 0, no signal -100; GFP signal change (wild-type ribosome), % (concentration not given with the values); hit rate 1.6% among 350,000; AID 720706;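 active = significant combined selectivity score with lowered wild-type GFP, culture density cut under 30%, mutant RFP and density less affected; inactive = any of these conditions unmet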; note: one replicate is shown; some compounds called inactive have numbers as strong as hits
# Beta cell apopt: blocks beta cell apoptosis; protection from apoptosis, % (no concentration beside the values); INS-1E cytokine-induced death, ATP luminescence, 48 h; percent of positive-control rescue, neutral wells zero; hit rate 0.8% among 300,000; AID 435005;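 active = all replicates at 75% or more, or half of them and the mean; inconclusive = half reach 75% but not the mean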;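 note: 0% = cytokine-treated negative control wells and 100% = positive control rescue; higher means more ATP so stronger rescue from cytokine killing; wells of about 40 µL received 100 nL stock; the first replicate is given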
# Calb FLC: C. albicans growth modulation with fluconazole | C. albicans CaCi-2 (fluconazole-resistant clinical isolate) + fluconazole, Alamar Blue growth, 48 h | growth inhibition, % (no concentration beside the values) | hit rate 0.57% among 300,000 | AID 1979;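 active = most replicates above 75%; inconclusive = exactly half above 75%; inactive = most below 75%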;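 note: all wells also contain fluconazole at 8 µg/ml as a sub-toxic cotreatment; 0% = median of DMSO wells and 100% = median of geldanamycin control wells; wells of about 8 µL received 7.5 nL stock; the first replicate is given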
# A1 inh: inhibitors of the anti-apoptotic protein A1, read as caspase activation; MEF A1-2A-BIM cells, Caspase-Glo 3/7 luminescence, 3 h; percent of clofoctol response, vehicle zero; caspase activation, % (concentration not given with the values); hit rate 0.066% among 330,000;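 active = over half of replicate activation scores above 10%, or exactly half above 10 with the replicate mean above 10; inconclusive = replicate mean below 10 yet half the replicates above 10; inactive = over half of replicates below 10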;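 note: wells of about 30 µL received 50 nL stock; many hits fall short of the cut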
# Ecoli rRNA inh OD600: recorded beside Ecoli rRNA inh, whose call it bears; OD600 change, %; measured here: OD600 growth;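 optical density of the mix in the first replicate; 0 = DMSO median and -100 = no signal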
# Ecoli rRNA inh RFP: further read-out of Ecoli rRNA inh, marked with its call; RFP signal change, %; measured here: RFP humanized mutant strains;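 first replicate; 0 = DMSO median and -100 = no signal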
# The depositor's hits bear a star; ? = inconclusive; . = not tested or not shown.
No.	SMILES	Beta2AR agonist	Calb FLC	T cruzi repl	LANA-H2B inh	Ecoli rRNA inh OD600	ALR H2O2 inh	Ecoli rRNA inh	Ecoli rRNA inh RFP	Beta cell apopt	A1 inh
1	Cc1ccc(CN2CCN(Cc3nc4c(s3)CCCC4)CC2CCO)cc1 (stereo unspecified)	-5	2	56*	-4.6	-4	9	9	2.9	-1	-0.3
2	O=S(=O)(CS(=O)(=O)c1ccc(Cl)cc1)c1ccc(Cl)cc1	-1	10	3	0.0	8	-2	5	1.0	-6	-0.1
3	O=C(NNc1cc(N2CCCC2)nc(N2CCCC2)n1)c1ccc([N+](=O)[O-])cc1	6	-5	26	7.6	12	-50	11	9.5	2	-0.1
4	COc1ccccc1NC(=O)/C(C#N)=C/c1cccn1C	-1	-2	11	0.1	10	5	20	2.3	0	-0.3
5	CCCc1cc(-c2n[nH]c(=S)n2CC)c2ccccc2n1	3	-10	-16	0.0	.	-10	.	.	2	-0.2
6	CN(C)S(=O)(=O)Oc1ccsc1C(=O)Nc1cccc(Cl)c1Cl	-14	8	62*	0.9	.	.	.	.	0	1.6
7	CCOc1cccc2cc(C(=O)Nc3cc(C)on3)c(=O)oc12	4	-4	-4	-5.5	.	-8	.	.	-3	0.4
8	Cc1cc2c3nonc3ccc2n1C	-5	-4	-4	-2.8	.	.	.	.	.	-0.1
9	COc1nc(OCCNC(C)=O)nc(N(C)C)n1	-3	25	-16	-1.5	.	-1	.	.	1	-0.1
10	O=C(O)c1ccc(N=Nc2c(-c3ccccc3)[nH]oc2=O)cc1	3	-1	-7	-0.2	9	10	8	0.6	-8	-3.5
11	Cc1ccc(-c2nc(C=Nc3ccc(O)cc3)c(O)o2)cc1	15	20	-132	.	-3	.	2	3.1	.	.
12	O=C(NCCCN1CCN(CCCNC(=O)c2ccc(F)cc2)CC1)c1ccc(F)cc1	-9	32	-3	-0.9	.	5	.	.	-5	1.0
13	COc1ccc(-c2nnc3ccc(SCC(=O)NCc4ccco4)nn23)cc1OC	-12	19	13	0.3	.	3	.	.	-1	1.3
14	CCOc1ccc(-c2cc(CCCC(=O)NCc3cccnc3)no2)cc1	-8	-4	-2	5.6	-19	-5	-9	-6.7	13	-0.1
15	Cc1ccc(S(=O)(=O)Oc2ccc3c(c2)O/C(=C\c2cccnc2)C3=O)cc1	7	29	12	-4.0	.	0	.	.	1	0.3
16	Cc1ccc(C#N)c(SCc2ccccc2F)n1	-2	-2	-11	-0.7	-12*	38	-25*	-4.7*	-16	0.9
17	O=C(N/N=C\c1ccc(COc2ccc([N+](=O)[O-])cc2)o1)c1cccc(Cl)c1	2	?	-13	0.9	.	-12	.	.	-6	0.4
18	COc1ccc(/C=N/NC(=O)c2cccc([N+](=O)[O-])c2)cc1OS(=O)(=O)c1ccc(C)cc1	4	?	-7	0.9	.	.	.	.	4	1.2
19	Clc1ccc(C2=Nn3c(nnc3-c3cc(-c4ccccc4)n[nH]3)SC2)cc1	17	26	30	0.4	.	-7	.	.	15	-1.7
20	COc1cccc(Nc2cc(C)nc3nc(C)nn23)c1	0	7	-3	-5.7	1	.	-2	-3.6	-1	-0.3
21	Cc1ccc2c(c1)c1c(n2CC(O)CN2CCCCC2C)CCCC1 (stereo unspecified)	6	-4	28	-0.9	-22	95*	-12	16	2	-0.2
22	CCCCSc1nc2c(cnn2-c2ccccc2)c(=O)n1N	-6	10	2	-4.6	-16	-5	-11	-2.9	6	-8.8
23	CCNC(=S)NC1CC2CCCC(C1)N2Cc1ccc(C)cc1 (stereo unspecified)	11	-6	11	3.1	10	-17	9	5.7	1	0.5
24	NS(=O)(=O)c1ccc(CNC(=O)CCS(=O)(=O)Cc2ccccc2)cc1	-9	12	-1	-3.8	0	1	2	-1.6	-1	0.8
25	COc1ccc(Cc2nnc(NC(=O)Nc3ccc(F)cc3)s2)cc1	6	-3	-11	3.0	23	8	22	3.4	.	0.3
26	O=C(Nc1cccnc1Cl)C1CCCN(c2ncnc3c2nc2n3CCCCC2)C1 (stereo unspecified)	3	1	-9	.	2	3	13	-0.8	.	.
27	Cc1c(C(=O)NN2CCOCC2)oc2c1ccc1ccccc12	8	44	-2	-9.0	-34	16	-25	-3.1	-3	2.6
28	CC(=O)Nc1cccc(NC(=O)CSc2nnc(NC(=O)c3ccco3)s2)c1	7	0	-15	1.5	3	-18	8	-2.2	7	-1.1
29	O=C(CNc1ccccc1)N/N=C/c1cn(-c2ccccc2)nc1-c1ccccc1	-18	37	19	-3.4	9	-7	9	-1.0	-4	0.7
30	C=CCNC(=O)C1CC1(c1ccccc1)c1ccccc1 (stereo unspecified)	7	2	-10	2.9	.	-5	.	.	-4	1.2
31	OCCN(CC#CC(O)(c1ccccc1)c1cccc(F)c1)CCO (stereo unspecified)	3	-6	-8	2.6	.	-9	.	.	.	0.0
32	CCC(C)Sc1cccc(-c2nc3cc(C)ccn3c2NCc2ccccc2)c1 (stereo unspecified)	9	3	16	-6.6	-33	.	-32	18	-4	-0.1
33	CCOc1cc(/C=C2/NC(=O)N(CC(=O)Nc3cccc(C)c3)C2=O)ccc1O	1	29	-62	-0.9	.	32	.	.	-6	0.0
34	CN(C)/C(=N\S(=O)(=O)c1ccccc1)c1ccc(F)cc1	3	-2	-14	16*	3	1	18	0.4	1	0.4
35	CCCCn1c(N)c(N(CC(C)C)C(=O)C2CCN(c3ncnc4sc(C)c(C)c34)CC2)c(=O)[nH]c1=O	-2	2	3	1.6	12	-12	12	9.0	4	0.5
36	Cc1ccc(CCNC(=O)C2CCCN(S(=O)(=O)c3cccs3)C2)cc1 (stereo unspecified)	10	-3	8	-1.5	0	-4	3	-1.3	-6	-0.4
37	CCOC(=O)c1nnc(-c2ccccc2)nc1N1CCSCC1	0	-4	3	3.9	-6	-2	-3	1.1	1	0.0
38	O=C(NCc1ccco1)c1cc2sccc2n1Cc1ccccc1	-8	-13	11	6.5	.	93*	.	.	2	0.9
39	O=C(Nc1ccc(F)cc1)c1ccc(-n2cncn2)c([N+](=O)[O-])c1	-1	2	6	-0.4	8	-15	7	-1.7	-1	0.0
40	O=C(O)CN=C1CC(c2ccccc2)CC(=O)/C1=C(/O)CCCN1C(=O)c2ccccc2C1=O (stereo unspecified)	2	-6	7	-1.8	16	-3	17	0.5	-5	-0.2
41	CC(C)CCNC(=O)Cc1csc(-c2ccccc2)n1	7	-32	-1	0.6	-6	-2	-10	6.2	0	0.4
42	CC(C)n1c(SCC(=O)Nc2ccc(N3CCOCC3)cc2)nnc1-c1ccco1	10	1	-18	0.1	6	-2	0	-0.2	1	-0.1
43	CCCCNCc1cc2ccccc2o1	-12	2	0	1.1	4	1	2	-5.3	-5	0.0
44	O=S(=O)(c1ccc(F)c(F)c1)N1CCN(c2ncccn2)CC1	-3	-4	-19	8.2	22	-6	14	2.1	0	-0.2
45	COc1ccccc1CNC(=O)c1ccc(OCC2CCCO2)cc1 (stereo unspecified)	-7	-8	1	2.2	.	.	.	.	-1	0.0
46	CCOC(=O)COc1coc(CN2CCN(c3cccc(Cl)c3)CC2)cc1=O	-1	-1	-14	0.7	13	6	10	2.0	.	-0.6
47	COC(=O)c1cc(NS(=O)(=O)c2ccc(NCc3cccnc3)c([N+](=O)[O-])c2)cc(C(=O)OC)c1	13	49	2	.	.	.	.	.	-2	0.9
48	O=C(Nc1ccc(F)cc1)N(CCCN1CCOCC1)Cc1cc2cc3c(cc2[nH]c1=O)OCO3	-7	10	-11	-3.2	.	-10	.	.	-10	0.5
49	S=C(NCc1ccccc1)N1CCN(Cc2ccc3c(c2)OCO3)CC1	-2	-43	3	-2.3	-8	5	3	1.5	-9	-0.9
50	CC(C)(C)c1ccc(C(=O)NCC(=O)OCN2C(=O)c3ccccc3C2=O)cc1	1	0	-2	-1.8	.	30	.	.	3	1.2
51	COc1cc(C2/C(=C(\O)c3cc(C)ccc3C)C(=O)C(=O)N2CCN(C)C)ccc1O (stereo unspecified)	3	8	-6	1.6	.	28	.	.	-1	-0.3
52	COC(=O)c1ccc(CSc2nc3sc4c(c3c(=O)n2C)CCCC4)o1	8	-4	0	5.9	.	-10	.	.	.	-0.6
53	CCOC(=O)Cc1csc(NC(=O)CSc2ccc(Br)cc2)n1	0	-1	-6	-1.5	.	-32	.	.	-1	-0.6
54	CC(C)C(NC(=O)c1ccccc1)C(=O)OCn1nnc2ccccc2c1=O (stereo unspecified)	0	.	.	2.3	.	2	.	.	-5	2.9
55	O=C(CN1C(=O)/C(=C2\SC(=S)N(C3CCS(=O)(=O)C3)C2=O)c2ccccc21)Nc1ccc(F)cc1 (stereo unspecified)	33	-7	-7	-0.7	.	-2	.	.	-44	-0.5
56	CCOC(=O)C(C)On1c(-n2nc(C)cc2C)nc2ccccc2c1=O (stereo unspecified)	3	3	-22	-0.9	-58	.	-38	-14	3	0.5
57	NNc1cc([N+](=O)[O-])cc2c1C(=O)N(Cc1ccccc1)S2=O (stereo unspecified)	-6	11	18	-5.0	12	-17	12	-13	-7	0.6
58	Cc1ccc2nccc(C(=O)N3CCCC(Nc4ccc(C)c(C)c4)C3)c2c1 (stereo unspecified)	6	39	-6	2.0	-25	99*	-3	-11	6	-0.2
59	CCCCN(C(=O)C1CC(=O)N(CCc2ccc(OC)c(OC)c2)C1)c1c(N)n(CCCC)c(=O)[nH]c1=O (stereo unspecified)	4	-8	-9	4.7	7	-1	4	-1.8	.	0.3
60	COc1ccc(/C=N/NC(=O)c2ccc(Cl)cc2)cc1COC(C)=O	-5	5	-12	-9.3	.	6	.	.	-11	0.3

# The listing continues:
No.	SMILES	Beta2AR agonist	Calb FLC	T cruzi repl	LANA-H2B inh	Ecoli rRNA inh OD600	ALR H2O2 inh	Ecoli rRNA inh	Ecoli rRNA inh RFP	Beta cell apopt	A1 inh
61	Cc1cc(C)c(C)c(S(=O)(=O)N2CCC(C(=O)NCCCN3CCOCC3)CC2)c1C	11	.	.	-0.1	3	0	4	4.3	5	1.2
62	Cc1ccc(SCCNC(=O)C(C)C)cc1	3	-7	-12	-0.8	3	-7	10	-1.4	.	0.4
63	Cc1cc(C)c2[nH]c(=O)c(CN(CC3CCCO3)C(=O)C3CCCO3)cc2c1 (stereo unspecified)	0	4	-7	1.4	.	-1	.	.	-2	0.0
64	COc1ccc(OC)c(C2C(C(=O)c3ccc(C)o3)=C(O)C(=O)N2c2cc(C)on2)c1 (stereo unspecified)	7	1	8	1.0	-7	8	-9	-2.6	-4	-0.4
65	Cc1c(C)n(Cc2ccccc2)c2ncnc(NCCN(C)C)c12	3	-1	14	2.5	12	-2	9	0.1	-2	-0.7
66	O=C(NCCn1cc(SCc2ccc(F)cc2)c2ccccc21)c1ccccc1F	11	-10	29	1.4	.	4	.	.	41	0.4
67	CCc1nc2ccccc2c(C(=O)OCC(=O)C(C)(C)C)c1C	7	11	-14	2.4	-39	-5	-38	-17	6	0.4
68	O=S(=O)(c1ccccc1)N1CCN(C(c2ccccc2)c2ccc(OC(F)(F)F)cc2)CC1 (stereo unspecified)	-9	3	32	-0.2	-26	-1	-1	-4.6	-2	-0.7

# An excerpt; count on the stated rates, not on these rows.
